# Screening data deposited in PubChem BioAssay by Broad Institute.
# rRNA inh HTS = inhibits bacterial ribosomal RNA function over humanized ribosomes; E. coli WT GFP vs humanized-ribosome RFP mutants, fluorescence, 24 h; stronger effect = lower value; DMSO median 0, no signal -100; GFP signal change (wild-type ribosome), % (no concentration beside the values); 350,000 compounds, 1.6% hits;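 active = significant combined selectivity score with lowered wild-type GFP, culture density cut under 30%, mutant RFP and density less affected; inactive = any of these conditions unmet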; note: one replicate is shown; some compounds called inactive have numbers as strong as hits
# T cruzi repl = blocks replication of Trypanosoma cruzi; 300,000 compounds, 1.4% hits; T. cruzi beta-gal in NIH3T3, luminescence, 90 h; inhibition, % (no concentration beside the values); AID 1885;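 active = mean inhibition across valid replicates above about 55%, limit read from the data; inconclusive = mean below that limit but half or more replicates reach it; inactive = mean below it, under half of replicates reach it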;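 note: signal also drops with host cell toxicity which is not excluded here; 0% = plate median of DMSO wells and 100% = zero luminescence signal; higher percent means less beta-gal luminescence so fewer parasites; stock transfer was 50 nL into about 50 µL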
# FGF22 binding = FGF22 (human) thermal shift binding. calls only at 9.99 µM. 340,000 compounds, 1.5% hits. recombinant FGF22 thermal shift, SYPRO orange fluorescence; percent of sucrose octasulfate shift, DMSO zero. Q9HCT0;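 active = melting point raised past a set limit in the mean and every replicate; inconclusive = no clear call; three in four hits are not shown here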
# Target sequence (Q9HCT0 whole entry, looked up): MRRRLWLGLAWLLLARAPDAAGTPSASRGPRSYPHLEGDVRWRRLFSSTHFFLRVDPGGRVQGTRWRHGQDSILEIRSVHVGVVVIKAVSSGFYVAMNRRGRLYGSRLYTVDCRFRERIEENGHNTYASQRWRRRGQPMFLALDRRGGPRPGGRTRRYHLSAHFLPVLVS
# ALR inh = blocks human ALR sulfhydryl oxidase activity; AID 485317; P55789; inhibition, % (concentration not given with the values); 290,000 compounds, 3.8% hits; purified ALR, DTT oxidation, H2O2 HRP-luminol luminescence;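 active = mean and each replicate at 75% or more; inconclusive = only one of the two met; inactive = neither met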;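 note: stock transfer was 7.5 nL into about 7.5 µL; 0% = neutral wells and 100% = wells with inactivated enzyme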
# Target sequence (P55789 whole entry, looked up): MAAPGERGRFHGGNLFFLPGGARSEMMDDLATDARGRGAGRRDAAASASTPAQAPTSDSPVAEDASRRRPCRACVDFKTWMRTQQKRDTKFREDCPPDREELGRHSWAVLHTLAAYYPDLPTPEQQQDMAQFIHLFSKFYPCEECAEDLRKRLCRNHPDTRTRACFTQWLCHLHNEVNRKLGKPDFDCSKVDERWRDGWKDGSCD
# Beta cell apopt = blocks beta cell apoptosis | protection from apoptosis, % (test concentration not listed) | 300,000 compounds, 0.8% hits | INS-1E cytokine-induced death, ATP luminescence, 48 h; percent of positive-control rescue, neutral wells zero;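 active = all replicates at 75% or more, or half of them and the mean; inconclusive = half reach 75% but not the mean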;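 note: 0% = cytokine-treated negative control wells and 100% = positive control rescue; higher means more ATP so stronger rescue from cytokine killing; wells of about 40 µL received 100 nL stock; the first replicate is given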
# MLL AF4-AF9 inh = MLL-AF4/AF9 protein interaction inhibition. AlphaScreen, biotin-AF4 peptide binding to FLAG-AF9. AID 651704. inhibition, % at 10 µM. 350,000 compounds, 0.47% hits. P42568;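 active = every replicate reaching a set inhibition limit, whatever the replicate mean, cut at about 25% in these data; inconclusive = mean inhibition reaches that limit but some replicates miss it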;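 note: 0% = plate neutral control median and 100% = total signal loss; the record names both 10 and 1 µM as test concentration; the first replicate is given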
# Target sequence (P42568 whole entry, looked up): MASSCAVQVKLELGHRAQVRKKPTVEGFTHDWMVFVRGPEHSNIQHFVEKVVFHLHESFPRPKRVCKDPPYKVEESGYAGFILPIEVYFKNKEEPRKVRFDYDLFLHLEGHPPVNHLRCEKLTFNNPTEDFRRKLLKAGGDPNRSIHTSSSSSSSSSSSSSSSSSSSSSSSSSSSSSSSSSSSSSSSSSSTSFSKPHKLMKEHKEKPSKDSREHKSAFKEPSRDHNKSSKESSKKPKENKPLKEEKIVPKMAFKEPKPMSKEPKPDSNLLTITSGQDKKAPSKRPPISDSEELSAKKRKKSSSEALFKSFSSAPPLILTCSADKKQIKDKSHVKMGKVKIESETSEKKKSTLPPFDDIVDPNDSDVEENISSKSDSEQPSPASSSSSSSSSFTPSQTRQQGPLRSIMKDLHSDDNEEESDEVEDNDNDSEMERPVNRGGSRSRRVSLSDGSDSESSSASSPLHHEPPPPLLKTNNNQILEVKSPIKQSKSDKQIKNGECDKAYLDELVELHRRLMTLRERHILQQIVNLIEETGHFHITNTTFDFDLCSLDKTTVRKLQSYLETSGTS
# RanGTP-Imp inh = inhibitors of RanGTP-importin-beta interaction, primary screen, biochemical, FRET, CFP-Ran, YFP-importin-beta, homogeneous; cell-free CFP-Ran/YFP-importin-beta FRET ratio; inhibition, % (concentration not given with the values); 300,000 compounds, 1.1% hits; AID 2216;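 active = most replicates above 15%; inconclusive = exactly half above 15%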;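 note: 0% = DMSO wells and 100% = Ran loaded with GDP instead of GTP; wells of about 40 µL received 100 nL stock; the first replicate is given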
# Calb FLC = affects C. albicans growth with fluconazole | C. albicans CaCi-2 (fluconazole-resistant clinical isolate) + fluconazole, Alamar Blue growth, 48 h | growth inhibition, % (test concentration not listed) | 300,000 compounds, 0.57% hits | AID 1979;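 active = most replicates above 75%; inconclusive = exactly half above 75%; inactive = most below 75%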;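 note: all wells also contain fluconazole at 8 µg/ml as a sub-toxic cotreatment; 0% = median of DMSO wells and 100% = median of geldanamycin control wells; wells of about 8 µL received 7.5 nL stock; the first replicate is given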
# rRNA inh HTS OD600 = second read-out of rRNA inh HTS, no call of its own (marks repeat the call); OD600 change, %; measured here: OD600 growth;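 optical density of the mix in the first replicate; 0 = DMSO median and -100 = no signal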
# rRNA inh HTS RFP = recorded beside rRNA inh HTS, whose call it bears; RFP signal change, %; measured here: RFP humanized mutant strains;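 first replicate; 0 = DMSO median and -100 = no signal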
# * = called active by the depositor; i = inactive; ? = inconclusive; . = no result given. Only part of the results is shown; count on the stated rates, not on these rows.
SMILES,rRNA inh HTS,rRNA inh HTS OD600,rRNA inh HTS RFP,T cruzi repl,FGF22 binding,ALR inh,Beta cell apopt,MLL AF4-AF9 inh,RanGTP-Imp inh,Calb FLC
Cn1cc([N+](=O)[O-])c(C(=O)Nc2ccn(C34CC5CC(CC(C5)C3)C4)n2)n1,-26.4*,-8.2*,-0.2*,15.9,i,-17.0,-13.4,-30.4,-3.5,-3.8
COc1ccc(OCc2cccc(C(=O)O)c2)cc1,.,.,.,-16.8,.,-6.7,-3.7,.,3.1,-3.8
Cc1ccnc(NC(=O)c2c(-c3ccccc3Cl)noc2C)c1,.,.,.,8.5,.,2.2,0.7,.,-0.6,15.1
O=C(Cn1c(=O)oc2ccccc21)Nc1ccc(S(=O)(=O)N2CCCCC2)cc1,.,.,.,3.6,.,-3.5,7.0,.,3.6,0.5
Cc1sc2ccccc2[n+]1CCC(C)S(=O)(=O)[O-] (stereo not drawn),.,.,.,-1.1,.,11.9,-1.4,.,-3.8,-6.5
COc1ccc(C(=O)NCCc2cccc(Cl)c2)cc1OC1CCN(C(C)=O)CC1,-6.5,1.7,2.3,0.3,i,?,6.0,-1.8,1.8,28.3
O=[N+]([O-])c1ccccc1S(=O)(=O)Nc1cccc(-c2ccc(N3CCOCC3)nn2)c1,-22.1,-19.9,0.2,31.7,i,.,6.0,0.0,0.7,19.4
COc1ccc(N(CC(=O)NCc2ccc3c(c2)OCO3)S(C)(=O)=O)cc1OC,16.5,6.0,3.3,0.5,i,.,-3.4,-10.8,4.3,5.1
O=C(CSc1nnnn1C1CCCC1)Nc1ccccc1N1CCOCC1,-17.1,-14.6,0.6,-3.5,i,-3.6,-14.7,-0.2,3.7,-6.1
CC1CCc2cc(F)ccc2N1C(=O)c1cccnc1 (stereo not drawn),-6.5,-1.2,-0.6,-4.1,i,-9.7,.,-9.0,1.8,7.1
COC(C(=O)Nc1ccc(F)cc1F)c1ccccc1 (stereo not drawn),.,.,.,2.1,.,-1.3,-8.6,.,-7.7,-3.7
O=C(c1cccc(C(F)(F)F)c1)N1CCC(O)(CS(=O)(=O)Cc2ccccc2Cl)CC1,.,.,.,1.9,.,-7.6,-0.8,.,-2.0,-0.2
O=C(NCc1ccc(Cl)cc1)c1cc(=O)[nH]c2ccccc12,12.1,9.1,-0.6,3.7,i,-1.0,-0.9,-2.9,-3.6,-9.2
COC(=O)c1ccc(C(=O)OC)c(NC(=O)COC(=O)C2CC2C)c1 (stereo not drawn),.,.,.,-18.7,.,1.6,-2.2,.,-3.6,-3.0
COc1cc(C(NC=O)C(=O)Nc2c(C)cccc2C)ccc1O (stereo not drawn),0.8,6.1,2.5,4.2,i,19.3,-3.8,-9.0,0.6,?
CSCC[C@H](NC(=O)OC(C)(C)C)C(=O)N/N=C/c1ccc2nccnc2c1,7.8,7.9,0.8,.,i,-2.0,.,2.2,4.9,24.3
N#Cc1ccc(Oc2cccnc2)cc1C#N,.,.,.,-2.4,.,-6.8,-2.1,.,3.3,-4.1
O=C(CCc1nc2ccccc2c(=O)[nH]1)N1CCN(S(=O)(=O)c2ccc(Cl)c(C(F)(F)F)c2)CC1,4.7,3.4,3.7,-16.4,i,-13.5,.,-1.1,1.7,6.0
CC(C)C(=O)Nc1ccccc1N1CCN(S(C)(=O)=O)CC1,.,.,.,-0.4,.,-4.3,-3.9,.,3.0,-12.1
Cc1ccc(NC(=S)N2CCCCCC2)cc1,3.3,3.6,0.9,-11.9,i,-7.9,-4.3,-0.1,3.8,10.6
O=C(COc1ccc(-n2cnnn2)cc1)NC1CCCCC1,.,.,.,-10.2,.,.,-4.1,.,7.2,12.1
CCc1cc2c(Nc3ccc(O)cc3)nc(C)nc2s1,-17.1,-23.0,-4.5,-0.7,i,99.6*,-3.5,-9.6,3.8,20.9
CCOc1cc(/C=C2\SC(=NC)N(C)C2=O)cc(Cl)c1OC(C)=O,-8.3,-11.1,-6.5,0.5,i,37.9,15.5,-3.2,1.7,6.4
CSc1ccccc1NC(=O)CN(C)CC(=O)Nc1ccccc1F,.,.,.,-2.2,.,-18.8,1.7,.,0.0,-10.2
O=C(OCC(=O)N1CCc2ccccc21)[C@@H]1CC(O)CN1S(=O)(=O)c1ccccc1[N+](=O)[O-] (stereo partly drawn),0.8,-2.0,7.1,.,i,8.5,-2.5,2.2,.,.
CSc1nnc(C)c(/C=C/NOCc2ccc(Cl)cc2)n1,6.2,7.0,0.9,-3.6,i,14.2,-1.0,3.4,-3.3,6.2
COC(=O)c1c(C)oc(C)c1S(=O)(=O)N1CCOCC1,11.8,10.3,0.2,-18.6,i,0.5,-2.7,-1.8,3.1,2.8
CCn1cc(CNC(=O)/C=C/c2cnn(C)c2)c(C)n1,.,.,.,0.8,.,-11.5,-9.5,.,-0.9,-3.6
COc1ccc(Nc2ccc(N3C(=O)CCC3=O)cc2[N+](=O)[O-])cn1,7.2,7.7,-8.2,6.9,i,.,0.3,-9.8,-1.4,-7.9
Cn1cccc1-c1cc(C(=O)N/N=C/c2ccc(F)cc2)[nH]n1,-13.2,-10.1,0.1,5.1,i,.,5.7,11.3,?,-7.4
CC1(C)Oc2ccc3ccc(=O)oc3c2/C(=C/NNC(N)=S)C1=O,2.2,7.9,-1.5,18.6,i,87.8*,11.5,1.6,-1.7,.
CC(=O)Nc1ccc(NC(=O)C2CC(=O)Nc3nc4ccccc4n32)cc1 (stereo not drawn),13.6,5.4,4.5,-4.0,i,-4.1,1.4,-1.2,-0.4,-0.8
CN1CCN(c2ncnc3c2cnn3-c2ccc(Cl)cc2)CC1,0.6,4.3,0.2,25.1,i,-28.0,0.1,-10.5,-5.9,-12.4
Cc1sccc1/C=N/NC(=O)c1ccco1,2.7,4.7,-0.7,-12.3,i,-6.4,6.2,0.1,-4.3,-1.8
O=C(O)CSCC(=O)N1CCN(Cc2ccc3c(c2)OCO3)CC1,.,.,.,-9.8,.,1.2,-3.4,.,1.7,-12.0
O=S(=O)(c1cccc2nsnc12)N1CCN(c2ccccc2F)CC1,-19.2,-25.0,-3.8,18.6,i,-27.5,3.6,8.3,-2.5,-11.6
Cc1cc(C)c(S(=O)(=O)NC2CCN(Cc3ccccc3)CC2)c(C)c1,-0.6,-11.0,10.9,9.3,i,1.5,7.9,3.5,8.2,-0.7
[O-]/[N+](=C\c1ccccc1)[C@@H]1CCCC[C@@H]1/[N+]([O-])=C/c1ccccc1,.,.,.,-6.5,.,14.0,0.8,.,2.2,8.2
COC(=O)C(C)N1C(=O)S/C(=C\c2ccc(-c3ccc(C(=O)O)cc3C)o2)C1=O (stereo not drawn),4.2,-0.5,10.6,5.5,i,97.9*,0.6,-4.5,17.3*,2.6
CCn1c(SCC(=O)NC2CC2)nnc1-c1cccc(OC)c1,4.2,2.2,-2.3,-2.3,i,0.0,-4.6,-0.5,.,.
CCOCC(=O)NCc1ccc2c(c1)OCO2,.,.,.,-7.2,.,-2.4,-2.5,.,3.0,-2.2
CC(=O)c1ccc(S(=O)(=O)N2CCN(C(=O)c3ccc(-n4cncn4)c([N+](=O)[O-])c3)CC2)cc1,3.8,10.6,0.7,.,i,.,-17.2,-10.9,.,.
O=C(NC(Cc1c[nH]c2ccccc12)C(=O)O)/C(=C\c1ccc2c(c1)OCO2)NC(=O)c1ccccc1 (stereo not drawn),3.9,8.3,-7.7,-1.8,i,.,2.1,0.1,0.4,-0.9
CC(=O)N1CCOc2ccc(S(=O)(=O)N3CCC(C(=O)NCc4ccccc4)CC3)cc21,0.6,8.2,-0.5,-5.6,i,-6.5,-12.1,0.0,-3.4,41.8
COc1ccc2nc(NC(=O)CCn3cccc3)sc2c1,.,.,.,-17.2,.,.,-5.5,.,2.4,-1.5
Cc1cccc(C)c1NC(=O)CN1C(=O)NC(C)(C2CC2)C1=O (stereo not drawn),5.5,8.8,0.9,.,i,.,-1.1,-4.1,.,.
CCc1sc(C(=O)Nc2cc(Cl)ccc2N2CCCCC2)cc1C,.,.,.,18.9,.,0.1,5.5,.,2.9,0.5
Cn1c(CCC(=O)Nc2cc(S(C)(=O)=O)ccc2Cl)nc2cc(S(=O)(=O)N3CCOCC3)ccc21,-1.2,0.7,-0.3,-7.1,i,-7.3,-1.2,0.8,-1.6,-2.1
Cc1cccc(C(=O)NNC(=O)c2ccccc2Br)c1,5.0,8.8,-0.1,-7.5,i,11.2,.,-4.0,2.0,-3.8
COc1ccc(C(=O)NC(=S)NNC(=O)c2ccccc2C)cc1,-41.0*,-26.2*,-9.6*,-13.4,i,-45.5,10.5,0.3,-4.8,100.8*

# Next results
SMILES,rRNA inh HTS,rRNA inh HTS OD600,rRNA inh HTS RFP,T cruzi repl,FGF22 binding,ALR inh,Beta cell apopt,MLL AF4-AF9 inh,RanGTP-Imp inh,Calb FLC
Cn1c(CCN2CCOCC2)nc2cc(NS(=O)(=O)c3ccccc3)ccc21,3.8,-4.1,1.3,12.1,i,4.8,-8.7,5.7,4.0,2.9
NC(=O)C1CCN(C2=C(NS(=O)(=O)c3ccc(Br)cc3)C(=O)c3ccccc3C2=O)CC1,-30.9*,-15.5*,2.0*,6.1,i,22.0,8.8,32.3*,3.3,.
O=C(CN1CCN(S(=O)(=O)c2ccc(F)cc2)CC1)Nc1cccc(C(F)(F)F)c1,.,.,.,11.6,.,-14.5,-3.9,.,-1.7,-13.0
O=[N+]([O-])c1cnn2cc(Br)cnc12,5.0,1.4,-11.4,-4.1,i,-2.6,-1.2,-1.6,2.5,-8.1
C=CC[C@@H](CC(=O)N(CCO)Cc1ccccc1)C(=O)N[C@H](COC(=O)[C@@H](CC=C)CC(=O)OC(C)(C)C)c1ccccc1,-0.5,0.6,2.6,.,i,13.1,?,2.5,.,.
CS(=O)(=O)Nc1ccc(C(=O)Nc2ccc(S(=O)(=O)Nc3nccs3)cc2)cc1,8.6,1.9,-2.0,1.5,i,-1.3,-7.6,-0.4,-0.1,-4.0
COc1ccc(Cl)cc1Nc1nc(NCCO)nc(N2CCCC2)n1,.,.,.,14.5,.,0.4,-2.7,.,?,14.3
COc1ccc(Cn2c(=O)[nH]c3cc(OC)c(OC)cc3c2=O)cc1,22.2,15.8,1.3,5.6,i,8.9,-2.3,-1.5,0.2,15.5
C/C(CC(=O)Nc1cc(Cl)ccc1Cl)=N\NC(N)=S,.,.,.,-3.8,.,19.2,5.4,.,4.5,-3.5
COc1ccccc1CCNC(=O)c1ccc2nc[nH]c2c1,3.2,0.3,3.2,1.8,i,-4.0,.,-1.2,0.3,-8.6
COC(=O)C[C@H]1c2ccccc2S(=O)(=O)N1Cc1ccc(OC)cc1,4.9,-2.5,0.8,-3.6,i,.,-1.9,2.3,2.3,-4.9
CCOc1ccc(S(=O)(=O)N2CCN(C(=O)c3cccnc3)CC2)cc1,4.7,7.1,0.6,-5.1,i,1.8,-4.9,-3.2,-0.4,2.4
